# Screening data as filed in PubChem BioAssay.
# PINK1 expr mod = PINK1 expression modulation | PINK1 immunofluorescence, high-content cytometry, 24 h | Potency, µM (titrated, usually from 76.6 µM), without a hit: at the highest dose activation (PINK1 increase), hits mostly activators | 410,000 tested, 0.2% active | AID 624263; active = well fitted activation curve with a large enough effect; inconclusive = small, poorly fitted or top-dose-only effect; inactive = flat fitted curve, though single readings scatter; cell line not stated here;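 also: potency is read from the fitted curve at half-maximal effect; % of control where 0% means no effect; nearly all actives have a fitted effect of over 65% in size; a mitochondrial uncoupler was the plate control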
#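 Stable cell line, 250 cells/well, 12 h attachment; compounds pinned at 5 concentrations, 24 h; CCCP control. Fixed with nuclear dye, primary antibodies 12 h at 10 degrees C, secondary plus cell stain; laser-scanning cytometer read.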
# TRPML1 agonist = human mucolipin-1 channel agonism. activation, % (no concentration beside the values). TRPML1-expressing cells, Ca2+ dye fluorescence, FDSS; host cell line not named in the record; reference of the full effect not given here. AID 624414. Q9GZU1. 410,000 tested, 0.12% active; in the data active = activation above about 50%; inconclusive = about 30% to 50%; inactive = below about 30%; also: 0% is about no effect; the text of the record puts the active cut at 80%
# Target sequence (Q9GZU1 whole entry, looked up): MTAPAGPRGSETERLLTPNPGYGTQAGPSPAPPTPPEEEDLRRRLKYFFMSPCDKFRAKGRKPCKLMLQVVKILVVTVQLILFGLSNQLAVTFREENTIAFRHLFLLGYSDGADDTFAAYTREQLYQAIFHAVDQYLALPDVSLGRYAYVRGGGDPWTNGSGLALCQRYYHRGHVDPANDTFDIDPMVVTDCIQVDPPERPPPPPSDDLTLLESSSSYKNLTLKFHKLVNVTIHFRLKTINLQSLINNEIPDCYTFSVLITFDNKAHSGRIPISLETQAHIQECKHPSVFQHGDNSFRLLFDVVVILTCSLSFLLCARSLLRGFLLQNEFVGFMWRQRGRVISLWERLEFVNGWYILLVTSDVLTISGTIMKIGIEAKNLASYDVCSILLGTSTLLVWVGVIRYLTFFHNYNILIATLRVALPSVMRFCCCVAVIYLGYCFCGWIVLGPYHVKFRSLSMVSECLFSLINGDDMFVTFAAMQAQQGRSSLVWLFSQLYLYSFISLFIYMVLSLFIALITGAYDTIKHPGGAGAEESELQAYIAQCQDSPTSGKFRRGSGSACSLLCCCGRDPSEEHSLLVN
#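 Tet-induced TRPML1-DL cells, 1,500 per well, cultured overnight, were loaded with a no-wash Ca2+ dye for 45–90 min. Calcium fluorescence was recorded on the FDSS for 110 s after compound addition, before the EC80 agonist (4 uM 54-4) was added.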
# TRPML1 blocker = human mucolipin-1 channel inhibition; TRPML1-inducible cells, Ca2+ dye fluorescence, FDSS; hits give low values; inhibition of EC80 agonist-evoked calcium signal; activity change, negative = inhibition, % (concentration not given with the values); 390,000 tested, 0.02% active; in the data active means activity change below about -50%; inconclusive means about -30% to -50%; inactive means above about -30%;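 also: stimulus is agonist 54-4 at its EC80 concentration; % is scaled to controls: 0 for no effect and ±100 for the full control effect; compound concentration not given in the record; the text of the record puts the active cut at -80%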
#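 Calcium fluorescence in TRPML1-DL cells induced overnight with Tet: a 110 s read after compound pin addition, then a 110 s antagonist read after challenge with 54-4 at 4 uM final (EC80).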
# D2 agonist = activates the human D2 dopamine receptor. P14416. DiscoveRx PathHunter D2 beta-arrestin, luminescence, 90 min; 100% = 57 uM dopamine signal. activation, % (concentration not given with the values). 360,000 tested, 0.084% active; in the data active = activation above about 40%; inconclusive = about 15% to 40%; inactive = below about 15%; also: compound concentration not given in the record; the text of the record calls up to 30% inactive
# Target sequence (P14416 whole entry, looked up): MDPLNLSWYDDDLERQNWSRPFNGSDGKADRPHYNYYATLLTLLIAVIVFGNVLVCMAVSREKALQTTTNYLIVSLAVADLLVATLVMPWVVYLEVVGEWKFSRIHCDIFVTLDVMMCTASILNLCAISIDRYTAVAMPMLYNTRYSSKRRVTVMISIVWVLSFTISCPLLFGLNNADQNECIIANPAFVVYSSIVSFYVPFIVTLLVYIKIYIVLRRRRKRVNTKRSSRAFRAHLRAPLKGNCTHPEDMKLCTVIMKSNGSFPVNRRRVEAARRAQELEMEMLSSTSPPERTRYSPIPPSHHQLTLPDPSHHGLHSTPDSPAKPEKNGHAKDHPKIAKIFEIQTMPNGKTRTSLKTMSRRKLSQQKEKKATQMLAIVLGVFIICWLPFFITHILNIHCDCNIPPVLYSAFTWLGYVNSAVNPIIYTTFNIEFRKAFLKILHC
#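 Agonist mode: compounds alone added to overnight-plated D2 PathHunter cells for 90 min at 37 C, with 57 uM final dopamine (EC100) defining full response. Beta-arrestin recruitment detected by chemiluminescent reagent, read after 1 h at ambient temperature.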
# Six1-Eya2 inh = Six1/Eya2 interaction inhibition | Q15475+O00167 | 360,000 tested, 0.56% active | AlphaScreen GST-Six1/His-Eya2 binding, biochemical; hits give low values; control for the full effect not named in the record | activity change, % (concentration not given with the values); in the data active = activity change below about -65%; inconclusive = about -30% to -65%; inactive = above about -30%; also: % is scaled to controls: 0 for no effect and ±100 for the full control effect
#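 Compounds are tested against tagged Six1 and Eya2 proteins bridged by glutathione donor and nickel acceptor beads; after a one-hour incubation at 37 °C without light, AlphaScreen emission is recorded.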
# CtBP-E1A blk = blocks the CtBP interaction with E1A; 340,000 tested, 0.49% active; activity change, % (no concentration beside the values); AlphaScreen GST-E1A/His-CtBP binding, 1536-well; hits give low values; control for the full effect not named in the record; in the data active means activity change below about -65%; inconclusive means about -30% to -65%; inactive means above about -30%; also: % is scaled to controls: 0 for no effect and ±100 for the full control effect; compound concentration not given in the record
#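 In 5 uL wells, 23 nL compound meets equimolar GST-E1A and His-CtBP (5X stock 125 nM each) for 2 h, 37 °C. Beads (5X, 50 ug/mL) then 1 h, 37 °C, dark.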
# Active calls of the source: *; ? = inconclusive; . = no result given; & = joins results of further samples; [ ] = remark or other dose.
# Values run as follows: CtBP-E1A blk	TRPML1 blocker	PINK1 expr mod	TRPML1 agonist	Six1-Eya2 inh	D2 agonist
1. Cc1ccc(-c2cc(C(=O)Nc3sc4c(c3C(=O)NCc3ccco3)CCC4)[nH]n2)c(O)c1
  .	5	10%	-0.6	8	1.4
2. COc1ccc(S(=O)(=O)NCC2CCCN(C(=O)c3ccccc3)C2)cc1 (stereo not given)
  -3	-23	-1.4%	3.1	5	7.0
3. CCn1c(=O)c2cc(C(=O)N3CCN(c4cccc(Cl)c4)CC3)sc2c2ccccc21
  .	65	1.0%	0.4	.	.
4. O=C(Nc1ccc(Cc2nc3ccccc3s2)cc1)c1ccncc1
  1	6	0.8%	3.2	5	13
5. COc1ccc(NC(=O)CSc2nnc(-c3cccnc3)s2)cc1
  -7	-23	0.4%	1.5	-3	-0.3
6. CCOc1ccc(C(=O)Nc2nnc(S(=O)(=O)Nc3ccccc3)s2)cc1
  .	12	2.6%	-0.4	.	.
7. COc1ccc(Cn2nnnc2C(c2ccc(N(C)C)cc2)N2CCC(C)CC2)cc1 (stereo not given)
  -4	16	-3.3%	3.3	?	-4.8
8. O=C1CN(C(=O)c2ccccc2Cl)c2ccccc2N1
  -3	15	4.9%	0.2	9	2.6
9. CC1Cc2cc(S(=O)(=O)NCc3ccc(Cl)cc3)ccc2N1C(=O)C1CCC1 (stereo not given)
  .	-26	-0.3%	4.3	.	.
10. O=C(NCc1ccc(S(=O)(=O)NC2CCCCC2)s1)c1ccccc1
  8	-15	-1.4%	0.2	1	1.4
11. COc1ccc(C(=O)Nc2nc(C)cc(C)n2)cc1[N+](=O)[O-]
  1	25	2.0%	0.5	5	-0.3
12. Cc1ccc2nc(N3CCN(Cc4nnnn4C4CCCC4)CC3)c(C#N)cc2c1
  15	2	0.3%	-0.5	15	-2.5
13. CC1(Oc2cnc(Cl)c3ccccc23)CCN(Cc2ccc(-c3ccccn3)cc2)C1 (stereo not given)
  -16	.	1.5%	-0.9	-17	5.8
14. Cc1cccc(OCC(=O)Nc2ccc3c(c2)nc(CN2CCCCC2)n3C)c1
  -25	4&-7	0.7%&0.1%	-0.4&-0.5	-3	-3.5
15. N#Cc1ccccc1OCC(=O)Nc1ccc2c(c1)OCCO2
  7	0	5.5%	4.6	-4	-2.1
16. CCc1ccc(-c2cc(C)no2)cc1S(=O)(=O)Nc1cc(OC)c(OC)c(OC)c1
  .	28	1.8%	2.3	.	.
17. Cc1c(NC(=O)COc2ccc3ccc(=O)oc3c2)c(=O)n(-c2ccccc2)n1C
  -15	-7	-0.2%	1.3	-2	0.9
18. COc1ccc(N2CCN(C(C)=C3C(=O)c4ccccc4C3=O)CC2)cc1
  0	6	1.5%	0.0	0	-2.4
19. CSc1ccccc1NC(=O)CN(Cc1ccc(Cl)cc1)S(C)(=O)=O
  8	-2	.	0.3	3	-2.8
20. CC(CNC(=O)c1ccc2c(c1)nc1n2CCOC1)c1ccccc1 (stereo not given)
  .	3	1.3%	-0.7	.	.

# Some of the entries above in another layout.
7) COc1ccc(Cn2nnnc2C(c2ccc(N(C)C)cc2)N2CCC(C)CC2)cc1 (stereo not given)
8) O=C1CN(C(=O)c2ccccc2Cl)c2ccccc2N1
9) CC1Cc2cc(S(=O)(=O)NCc3ccc(Cl)cc3)ccc2N1C(=O)C1CCC1 (stereo not given)

Assay by compound	7	8	9
CtBP-E1A blk	-4	-3	.
TRPML1 blocker	16	15	-26
PINK1 expr mod	-3.3%	4.9%	-0.3%
TRPML1 agonist	3.3	0.2	4.3
Six1-Eya2 inh	?	9	.
D2 agonist	-4.8	2.6	.

# (next part)
# Values run as follows: CtBP-E1A blk	TRPML1 blocker	PINK1 expr mod	TRPML1 agonist	Six1-Eya2 inh	D2 agonist
21. CC1(c2ccccc2)NC(=O)N(N)C1=O (stereo not given)
  -6	3	-2.2%	2.3	1	4.6
22. O=C(COC(=O)c1ccccc1SCC(=O)N1CCCC1)NCc1ccccc1
  0	-9	-1.2%	0.8	12	1.5
23. CCCCOc1ccc(/C=C/C(=O)OCC(=O)c2c(N)n(C)c(=O)n(C)c2=O)cc1OCC
  .	20	2.0%	-0.5	1	2.5
24. O=S(=O)(Cc1ccccc1)N1CCC(N2CCN(c3ccccc3)CC2)CC1
  -1	-1	-2.9%[38.3 µM]	-0.3	3	?
25. Cc1nc(C)n(CC(=O)N2CCCC(C(=O)c3ccc(Cl)cc3C)C2)n1 (stereo not given)
  .	9	5.0%	0.2	19	-4.6
26. CC(C)c1ccc(N(C(=O)CNC(=O)c2ccco2)C(C(=O)NC2CCCC2)c2cccnc2)cc1 (stereo not given)
  -8	5	1.7%	-1.3	0	-6.1
27. CCOc1cc2c(cc1OCC)C(c1ccc(F)cc1)NCC2 (stereo not given)
  .	0	2.1%	-0.9	0	-5.3
28. CS(=O)(=O)N(Cc1ccccc1)c1ccc(C(=O)Nc2ccc(C(N)=O)cc2)cc1
  .	.	4.2%	.	16	-4.5
29. C=CCn1c(CCNC(=O)c2ccccc2F)nnc1SCC(=O)Nc1nc2ccccc2s1
  2	8	?	0.0	-1	-0.5
30. COc1cc(NC(=S)NCCCN2CCOCC2)cc(OC)c1OC
  -5	-5	2.0%	0.3	9	0.4
31. Cc1cc(/C=N/NC(N)=O)c(C)n1C1CCCCC1
  -11	13	-0.3%	-0.4	-24	-4.5
32. OC[C@H]1O[C@@H](n2cnc3c(NC4CCCC4)nc(Cl)nc32)[C@H](O)[C@@H]1O
  3	-5	0.5%	0.9	-1	-1.1
33. Nc1nc2c(ncn2[C@@H]2O[C@H](CNCc3ccc(OCCCN4CCOCC4)cc3)[C@@H](O)[C@H]2O)c(=O)[nH]1
  -9	12	-0.9%	0.4	0	-5.1
34. O=C(c1ccco1)N1CCN(CC(O)Cn2c3ccccc3c3ccccc32)CC1 (stereo not given)
  -10	8	0.1%	0.8	-21	1.9
35. CC(NC(=O)/C(=C\c1cccc([N+](=O)[O-])c1)NC(=O)c1ccco1)C(=O)O (stereo not given)
  4	2	0.6%[38.3 µM]	0.2	2	1.7
36. COc1ccc(CC(=O)NNC(=O)CN(C)S(=O)(=O)c2ccc(Cl)cc2)cc1OC
  -22	9	1.8%	4.5	0	-0.9
37. CCN(CCCNC(=O)c1cc2c(Cl)nc3ccccc3c2s1)Cc1ccccc1
  .	-5	0.2%	-0.9	.	.
38. O=C(Nc1cccc(C(F)(F)F)c1)C1CCCN(S(=O)(=O)c2cccc3nonc23)C1 (stereo not given)
  .	-3	18%	-0.4	.	.
39. Cc1cc(C)c2[nH]c(C(=O)Nc3ccc4c(c3)OCO4)cc2c1
  -8	-11	11%	4.8	-12	0.1
40. COc1cc(-c2nnc(SCC(=O)Oc3ccccc3)o2)cc(OC)c1OC
  .	49	-0.4%	1.3	.	.
41. CCOc1ccc(OCc2cccc(C(=O)N/N=C/c3cccnc3)c2)cc1
  1	2	8.4%	0.6	-11	4.1
42. Cc1ccc2cc(C#N)c(N3CCCN(S(=O)(=O)c4ccc(F)cc4)CC3)nc2c1
  4	73	-0.1%[38.3 µM]	2.0	19	0.3
43. COc1cc(NC(=O)CCc2nnc3ccc(N4CCN(c5cccc(OC)c5)CC4)nn23)cc(OC)c1
  .	13	2.5%	1.6	0	-0.4
44. COc1nccnc1NS(=O)(=O)c1ccc(N=Cc2c(C)[nH]n(-c3ccccc3)c2=O)cc1
  0	-2	-1.9%	2.1	-4	-5.4
45. CN(C)c1ccc(-c2ccccc2)nn1
  1	0	-1.9%	0.8	-2	-3.2
46. COC(=O)c1c(NC(=O)CC2Nc3cc(C)c(C)cc3NC2=O)sc(C)c1C (stereo not given)
  0	32	?	0.2	1	-3.8
47. CCC(=O)Oc1cccc(C(=O)Nc2cccc(NC(=O)c3ccco3)c2)c1
  -17	-7	-1.8%	0.5	-13	4.8
48. CCCNC(=O)C(=O)NCCC1=CCCCC1
  -1	-7	1.1%	-0.9	11	-2.5
49. CC(=O)NNS(=O)(=O)c1ccccc1[N+](=O)[O-]
  -8	2	0.9%	0.2	-7	-1.9
50. CCc1nn(-c2ccccc2)c2nc(-c3ccc(O)cc3)c3cc(OC)c(OC)cc3c12
  .	-3	1.3%	-0.6	.	.
51. O=C1CN(CCN2CC(=O)N(Cc3ccccc3)C(=O)C2)CC(=O)N1Cc1ccccc1
  -11	-1	0.7%	0.8	-15	-5.9
52. Cc1cccc(C(=O)NC(C)C2CC3CCC2C3)c1 (stereo not given)
  7	-13	19%	0.4	2	-0.8
53. CSc1ncccc1C(=O)Nc1cc(C)ccn1
  4	-14	0.5%	-0.5	4	0.7
54. O=C(NCc1ccco1)c1ccc2nccnc2c1
  -1	0	-1.2%	-0.1	-5	-1.7
55. COc1cc(CNCCCN2CCOCC2)c(Br)cc1OC(C)C
  7	24	-0.3%	0.1	-16	-2.2
56. Cn1c(SCC(=O)N2CCCc3ccccc32)ncc(C(=O)Nc2ccc(Cl)cc2)c1=O
  .	34	7.8%	2.6	.	.
57. O=C(CN1C(=O)CSc2ccccc21)NCCC1=CCCCC1
  5	-7	0.1%	2.0	0	3.0
58. CCN(CC(=O)Nc1ccc(NC(C)=O)cc1)C(=O)c1cc(C)on1
  0	18	-3.2%	-0.6	6	0.1
59. COc1ccc(NC(=O)Nc2ccc3c(c2)CCC3)c(OC)c1
  7	-1	4.2%	2.3	-2	0.5
60. O=C(NCCN1CCC(n2c(=O)[nH]c3ccccc32)CC1)c1ccccc1
  4	.	-0.6%	-0.9	1	.
61. CN(C)C1(CNC(=O)C2CCC(=O)N(CCc3ccc(Cl)cc3)C2)CCCCC1 (stereo not given)
  -6	-12	0.7%	-0.2	-2	-3.1
62. COC(=O)c1ccc2c(=O)n(CCCCCC(=O)NCCc3ccccc3)c(=O)[nH]c2c1
  .	-6	1.2%	0.3	.	.
63. COC(=O)c1c(NC(=O)COC(=O)c2ccc(NC(=O)CC#N)cc2)sc2c1CCCCC2
  -5	13	3.3%	-0.4	-24	-1.7
64. O=C1CCC/C1=c1\s/c(=C/c2cccnc2)c(=O)n1-c1ccccc1
  -4	4	1.0%	0.9	-2	-2.9
65. C[C@@H]1CC[C@H]2C(=O)N3[C@@H](CC[C@@H](C)[C@@H]3c3ccc(Br)cc3)C(=O)N2[C@H]1c1ccc(Br)cc1
  -5	44	1.3%	3.0	-12	-2.9
66. Cc1nnc(SCC(=O)N(C)C2CCCCC2)n1C
  1	-15	3.9%	1.2	-2	-4.0
67. c1ccc2oc(-c3ccc(Nc4nc(N5CCOCC5)nc(N5CCOCC5)n4)cc3)nc2c1
  0	-7	0.7%	-0.7	0	-1.4
68. COc1ccc(NS(=O)(=O)c2ccc(C)c(NC(=O)c3ccc(C)c(S(=O)(=O)N4CCOCC4)c3)c2)cc1
  2	9	0.7%	-0.1	-1	-4.1
69. COc1ccccc1OCCCCCc1c(C)n[nH]c1C
  -2	4	0.5%[38.3 µM]	-0.3	-3	2.6
70. O=c1[nH][nH]cc1C=Nc1cc(Cl)ccc1O
  .	2	-0.2%	-0.2	-23	?
71. CN(Cc1ccccn1)C(=O)C1CCC(=O)N(Cc2cccc(C(F)(F)F)c2)C1 (stereo not given)
  0	3	1.8%	-0.5	0	-10.0
72. O=C(CCCN1C(=O)C(c2ccccc2)Oc2cccnc21)NCCc1ccc(Cl)cc1 (stereo not given)
  1	45	-0.1%	2.7	7	-2.5
